Assay outcomes from PubChem BioAssay.
PV pol inh – inhibitors of poliovirus RNA polymerase binding and polymerization. 150,000 tested, 0.66% active. AID 588519. P03300. % elongation, % (compound at 16.7 µg/mL). poliovirus polymerase elongation, fluorescence polarization; hits give low values; in the data active = % elongation below about 90%; also: some results filed as inactive read as strong as hits
Target sequence (P03300 1749-2209 limits assumed): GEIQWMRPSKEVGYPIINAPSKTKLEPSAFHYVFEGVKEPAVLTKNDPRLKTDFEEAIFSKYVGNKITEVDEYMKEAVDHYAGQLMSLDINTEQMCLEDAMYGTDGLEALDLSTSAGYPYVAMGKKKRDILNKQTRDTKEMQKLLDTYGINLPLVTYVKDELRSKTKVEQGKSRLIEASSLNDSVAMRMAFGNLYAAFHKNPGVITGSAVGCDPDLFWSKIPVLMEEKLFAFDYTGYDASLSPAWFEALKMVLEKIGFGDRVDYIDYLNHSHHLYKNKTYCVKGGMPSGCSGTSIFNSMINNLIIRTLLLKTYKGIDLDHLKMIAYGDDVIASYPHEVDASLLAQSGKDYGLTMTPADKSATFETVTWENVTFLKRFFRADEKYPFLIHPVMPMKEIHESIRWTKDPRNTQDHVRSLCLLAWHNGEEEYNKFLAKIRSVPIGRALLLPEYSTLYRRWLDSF
PV pol inh intensity – further read-out of PV pol inh, marked with its call; % elongation; measured here: total intensity read-out; formula for this scale not given here;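 total fluorescence in place of polarization; lower means less elongation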
Starred values were filed as active, the others as inactive.

structure	PV pol inh	PV pol inh intensity
O=c1cc(-c2ccccc2)nc(SCc2nc(-c3cccc(C(F)(F)F)c3)no2)[nH]1	110.0	116.0
Cc1ccc(CC(=O)Nc2c(C(=O)N3CCN(c4ccccc4)CC3)oc3ccccc23)cc1	102.0	106.0
C#CCOc1ccc(C2C(C(=O)OC)=C(C)NC3=C2C(=O)c2ccccc23)cc1OCC (configuration not stated)	104.0	100.0
CCOc1ccc(NC(=O)CN2C(=O)C3(SCC(=O)N3c3ccc(F)cc3)c3ccccc32)cc1 (configuration not stated)	109.0	104.0
Cc1ccc(CNC(=O)CCCN2C(=O)CCn3nc(-c4cn(C)c5ccccc45)cc32)cc1	101.0	107.0
CCOC(=O)c1cc(-c2ccccc2)n(CCC(=O)NCCc2ccc(OC)c(OC)c2)c1C	102.0	108.0
Cc1cc(F)ccc1NS(=O)(=O)c1c(C)nc2scc(C)n2c1=O	107.0	108.0
COC(=O)Cc1c(C)c2ccc3c(c2oc1=O)CN(Cc1ccccc1Cl)CO3	107.0	108.0

The results go on.
structure	PV pol inh	PV pol inh intensity
COc1ccc(-c2cc(C)no2)cc1S(=O)(=O)N1CCc2ccccc21	136.0	193.0
CCOC(=O)C1CCCN(C(=O)C2CCN(c3nnc(C)c4c(C)n(-c5ccccc5)nc34)CC2)C1 (configuration not stated)	105.0	94.0
Cc1ccc2oc(-c3ccc(NC(=O)c4oc5ccc(Cl)cc5c4C)cc3)nc2c1	104.0	113.0
O=C(Nc1ccc(F)cc1)c1oc2ccccc2c1NC(=O)C1CCCCC1	100.0	103.0
Cc1ccc(NC(=O)c2sc3nc(-c4ccc(F)cc4)ccc3c2N)cc1F	106.0	120.0
O=C(CS(=O)(=O)c1cccc2nsnc12)N1CCN(c2ccc(F)cc2)CC1	109.0	110.0
COc1ccc(-c2c(C)nn3c4c(cnc23)C(=O)CC(c2ccc(C)cc2)C4)cc1 (configuration not stated)	104.0	100.0
O=C(CSc1nc2c(c(=O)[nH]1)CCC2)Nc1cc(C(F)(F)F)ccc1Cl	109.0	102.0

(listing goes on)
structure	PV pol inh	PV pol inh intensity
COc1cccc(Cn2c(=O)n(Cc3ccco3)c(=O)c3oc4ccccc4c32)c1	102.0	108.0
Cc1ccc(NC(=O)CSc2nc3ccc(NC(=O)COc4ccc(C)cc4)cc3s2)cc1	109.0	110.0
COc1cc(Cl)c(C)cc1NC(=O)c1sc2nc3n(c(=O)c2c1C)CCCCC3	109.0	112.0
COc1cc(NC(=O)c2c(C)oc3ncnc(N4CCCCC4)c23)cc(OC)c1	102.0	97.0
CCc1ccc(-n2c(SCc3ccccc3F)nc3[nH]ncc3c2=O)cc1	108.0	104.0
COc1ccc(NC(=O)c2cnc(Nc3ccc(C)c(Cl)c3)c3ccccc23)c(OC)c1	103.0	105.0
COc1ccc(NC(=O)c2oc3c(c2C)-c2nn(Cc4c(F)cccc4Cl)cc2CC3)c(OC)c1	109.0	112.0
Cc1cc(Br)cc(C)c1OCC(=O)Nc1ccc(S(=O)(=O)Nc2ncccn2)cc1	106.0	106.0

(further entries)
structure	PV pol inh	PV pol inh intensity
O=C(O)c1ccccc1C(=O)Nc1ccc(Br)c2cccnc12	103.0	105.0
Cc1cccc(NC(=O)NC2COc3ccccc3C2)c1C (configuration not stated)	104.0	109.0
Cc1cccc(C(=O)N2CCC(N3CCN(Cc4ccc(F)cc4)C(=O)C3=O)CC2)c1	100.0	105.0
CC(=O)Nc1ccc(NC(=O)C2(c3cccs3)CCOCC2)cc1	103.0	95.0
Cc1ccc(Cl)cc1N1CCN(CCNC(=O)Nc2ccccc2Cl)CC1	108.0	109.0
NC1=NC(c2cccc(Cl)c2)n2c(nc3ccccc32)N1 (configuration not stated)	105.0	102.0
Cc1nn(C)c(C)c1S(=O)(=O)N(CC(=O)N1CCN(c2ccccc2)CC1)c1ccc(C(C)C)cc1	106.0	105.0
COc1ccc(Cl)cc1NC(=O)CN(C)S(=O)(=O)c1ccc(Br)s1	102.0	104.0

Remaining list, next part
structure	PV pol inh	PV pol inh intensity
Cc1ccc(NS(=O)(=O)c2cc3[nH]c(=O)c(=O)[nH]c3cc2C)cc1N(C)C	109.0	105.0
COc1ccccc1NC(=O)CCS(=O)(=O)c1cc2c3c(c1)CCN3C(=O)CC2	112.0	118.0
Cc1nn(-c2ccc(N3CCCCC3)nn2)c(C)c1CCC(=O)Nc1ccc(F)cc1F	113.0	105.0
CC(=O)Nc1ccc(-c2nnc3n(CC(C)C)c(=O)c4ccccc4n23)cc1	107.0	109.0
Cc1ccccc1NC(=O)NCCc1c[nH]c2ccccc12	101.0	102.0
COC(=O)c1ccc(NC(=O)CSc2nc(C)cc(C)c2C(=O)Nc2ccccc2)cc1	105.0	98.0
O=C(Nc1cccc(C(F)(F)F)c1)c1cc(S(=O)(=O)N2CCCC2)c[nH]1	104.0	110.0
O=C(NCc1ccc(F)cc1)c1c2c(nc3ccccc13)C(=O)N(C1CCCCC1)C2	104.0	108.0

The results go on:
structure	PV pol inh	PV pol inh intensity
CCOc1ccc(CNCc2c(C(=O)O)n(Cc3ccccc3F)c3cc(OC)ccc23)cc1	110.0	113.0
Cc1oc(-c2ccccc2F)nc1CSc1nnc(C)n2c1cc1occc12	116.0	112.0
Cc1ccc(Cn2c(C)c3cnn(CC(=O)N4CCN(c5cc(C)ccc5C)CC4)c(=O)c3c2C)cc1	103.0	105.0
Cc1cc(C)cc(NS(=O)(=O)c2ccc3[nH]cc(C(=O)NCc4ccco4)c(=O)c3c2)c1	111.0	115.0
CC(C)CC(=O)Nc1nnc(SCc2cc(=O)n3ccccc3n2)s1	98.0	103.0
Cc1c(-c2cccc(NC(=O)Cc3ccccc3)c2)nc2ncccn12	97.0	104.0
COc1ccc(N2CC(c3nc(-c4cc(OC)c(OC)c(OC)c4)no3)CC2=O)cc1Cl (configuration not stated)	110.0	98.0
Cc1ccc(Cl)cc1N1CCN(c2ncnc3onc(-c4ccc(F)cc4)c23)CC1	109.0	112.0

(next part)
structure	PV pol inh	PV pol inh intensity
Cc1ccc(OCC(=O)N(Cc2ccco2)c2ccccn2)cc1	106.0	103.0
COc1cc(-c2cc3n(C)c(C)c(CCC(=O)Nc4ccc(F)cc4)c(=O)n3n2)cc(OC)c1OC	108.0	112.0
CCc1nc2ccc(C(=O)NCCc3ccc(SC)cc3)cc2nc1CC	105.0	107.0
CC1CCN(c2nn3c(=O)c(C(=O)NC(C)C)cnc3s2)CC1	104.0	105.0
Cc1ccc(C)c(NC(=O)C(=O)NCC(c2cccnc2)N2CCN(c3ccc(F)cc3)CC2)c1 (configuration not stated)	103.0	104.0
CSc1nn(Cc2cccc(C)c2)c(N)c1S(=O)(=O)c1ccccc1	109.0	93.0
COc1ccc(C(=O)Nc2ccc(-c3cc4ccccc4oc3=O)c(C)c2)cc1Br	100.0	110.0
COc1ccc(CN2CCc3nc(SCC(=O)Nc4cc(C)cc(C)c4)[nH]c(=O)c3C2)cc1	114.0	109.0

Following part
structure	PV pol inh	PV pol inh intensity
Cc1csc2nc(-c3cccc(NC(=O)c4c(F)cccc4F)c3)cn12	109.0	104.0
CC(C)Cn1c(=O)c2ccccc2n2c(CCC(=O)NC(C)c3ccccc3)nnc12 (configuration not stated)	104.0	108.0
COc1cc(CNCCSc2nnnn2C)ccc1OCc1ccc(C)cc1	108.0	108.0
Cc1ccc2onc(CC(=O)Nc3cccc(C(F)(F)F)c3)c2c1	106.0	110.0
CCc1cccc2c(-c3ccccc3)nc(SCC(=O)Nc3ccc(OC)cc3)nc12	105.0	105.0
COC(=O)C(NC(=O)CC(C)C)(Nc1nc2c(s1)CCCC2)C(F)(F)F (configuration not stated)	99.0	97.0
CCc1ccc(NC(=O)CN2C(=O)c3cccc4cccc2c34)cc1	103.0	101.0
CCc1nnc(NC(=O)c2cc(=O)c3cc(C)c(C)cc3o2)s1	107.0	105.0

Continuation:
structure	PV pol inh	PV pol inh intensity
CCC(=O)Nc1ccc2nc(SCCOc3ccc(C)cc3)sc2c1	104.0	112.0
COc1ccc(Cn2c(=O)n(-c3ccc(C)cc3)c(=O)c3c2c2cc(C)ccc2n3C)cc1	109.0	107.0
Cc1cccn2c(=O)c(C(=O)NCc3cccc(F)c3)cnc12	107.0	107.0
Nc1c(-c2nc(-c3ccc(F)cc3)cs2)c2ccccn2c1C(=O)c1ccc2c(c1)OCO2	112.0	111.0
COc1cc(Cl)c(C)cc1NC(=O)Cn1cc(S(=O)(=O)N2CCN(c3ccccc3F)CC2)c2ccccc2c1=O	112.0	115.0
Cc1nnc(N2CCCC(C(=O)NCCN(C)C)C2)c2nn(-c3ccccc3)c(C)c12 (configuration not stated)	103.0	107.0
O=C(c1ccc2c(c1)N(Cc1ccc(F)cc1Cl)C(=O)c1ccccc1S2)N1CCC2(CC1)OCCO2	111.0	114.0
CCN(CC)C(=O)c1ccc(NC(=O)c2ccc(-c3nn(C)c(=O)c4ccccc34)cc2)cc1	105.0	109.0

Following part
structure	PV pol inh	PV pol inh intensity
CCOc1ccc(CC(=O)NCCS(=O)(=O)N2CCN(c3ccccc3OC)CC2)cc1	101.0	104.0
CCN(CC)c1nc2ccccc2nc1C(=O)Nc1cccc(C(C)=O)c1	110.0	113.0
COc1ccc(Nc2nc(-c3cccc(Cl)c3)c3c(n2)-c2ccccc2OC3)cc1	112.0	116.0
C=CCC(CC=C)(CNC(=O)C(=O)Nc1cc(C)ccc1OC)c1ccc(OC)c(OC)c1	104.0	110.0
O=C(c1ccc(F)cc1)n1nc(-c2ccc(Cl)cc2)nc1NCc1ccco1	106.0	106.0
O=C(c1ccccc1)N(Cc1ccco1)Cc1cccs1	105.0	111.0
CCOC(=O)c1ccc(Nc2c(-c3cccc(O)c3)nc3nc[nH]n23)cc1	112.0	115.0
CCOC(=O)C1(C)C=C(Nc2ccc(C(=O)O)cc2)C(=O)N1c1ccc(C(=O)O)cc1 (configuration not stated)	110.0	110.0

Additional entries follow:
structure	PV pol inh	PV pol inh intensity
CC(=O)OCc1cnc(C)c2oc(=O)c(C(=O)Nc3ccc(C)cc3Cl)cc12	106.0	101.0
COc1ccccc1-c1noc(-c2ccc(NC3CCCCC3)c([N+](=O)[O-])c2)n1	107.0	110.0
O=C1N(Cc2ccccc2)c2ccccc2C1(O)c1c[nH]c2ccccc12 (configuration not stated)	106.0	110.0
COC(=O)c1sccc1S(=O)(=O)N(CC(=O)Nc1ccccc1)c1ccccc1	104.0	103.0
Cc1nc2ccn(Cc3ccco3)c(=O)c2cc1C(=O)NCc1ccc(F)cc1	111.0	103.0
CCOC(=O)c1ccc(N2C(=O)c3n[nH]c(-c4ccco4)c3C2c2ccc(OCC)cc2)cc1 (configuration not stated)	109.0	112.0
COc1ccc(CNS(=O)(=O)c2cc(Br)cc3c2N(C(C)=O)C(C)C3)cc1 (configuration not stated)	107.0	107.0
Cc1cccc(N2C(=O)C(CC(=O)Nc3cccc(F)c3)N(Cc3cccs3)C2=O)c1 (configuration not stated)	129.0	129.0

Going on with the list.
structure	PV pol inh	PV pol inh intensity
CCc1cccc(C)c1NC(=O)NC1COc2ccccc2C1 (configuration not stated)	107.0	99.0
O=C(Nc1cc(C(F)(F)F)ccc1Cl)c1cc(S(=O)(=O)NCc2ccccc2)ccc1F	106.0	109.0
CCc1ccccc1NC(=O)CSCc1cnn(-c2ccccc2)c1-n1cccc1	114.0	117.0
COc1cc(NC(=O)CC2C(=O)N(c3cccc(C)c3)C(=O)N2Cc2ccco2)cc(OC)c1 (configuration not stated)	100.0	109.0
Cc1ccc(OCC(=O)OCc2cc(=O)n3ccsc3n2)cc1C	112.0	115.0
CCN(CCCNC(=O)c1nn(-c2ccc(OC)c(Cl)c2)c(=O)c2c1c1ccccc1n2C)c1ccccc1	102.0	109.0
CC(C)(C)c1ccc(S(=O)(=O)NCc2nc3cccnc3n2Cc2ccccc2Cl)cc1	104.0	109.0
COc1ccc(CNC(=O)CCCN2C(=O)COc3ccc(C)cc32)cc1	109.0	101.0

Remaining list, next part.
structure	PV pol inh	PV pol inh intensity
O=C(c1cccc(Cl)c1)N1CCC(c2nc3ccccc3o2)CC1	107.0	110.0
Cc1cc(-c2ccccc2)nc2cc(C(=O)Nc3cc(C(F)(F)F)ccc3Cl)nn12	104.0	113.0
CCN(C(=O)CSc1nc(-c2ccccc2)no1)c1cccc(C)c1	109.0	109.0
CCOC(=O)c1ccc(NC(=O)CN2C(=O)c3cccnc3Sc3ccccc32)cc1	106.0	109.0
CCOc1ccc(CCNC(=O)c2cnc3c(-c4ccc(F)cc4)c(C)nn3c2C)cc1OCC	111.0	96.0
Cc1ccc(CNC(=O)Cn2c(-c3cccs3)cc3cc(Cl)ccc32)cc1	116.0	113.0
CC(C)(C)c1ccc(C(=O)NC2(C(F)(F)F)C(=O)Nc3c2c(=O)[nH]c(=O)n3-c2ccccc2)cc1 (configuration not stated)	103.0	104.0
CC1CCCCN1Cc1c(O)ccc2c(=O)c(-c3ccc(Cl)cc3)coc12 (configuration not stated)	101.0	112.0

Next part.
structure	PV pol inh	PV pol inh intensity
Cc1ccc(CNc2ccc3cc(S(=O)(=O)N4CCCCC4)ccc3n2)cc1	114.0	110.0
Cc1c2cnn(CC(=O)NC(C)C)c(=O)c2c(C)n1Cc1ccccc1Cl	102.0	86.0
CN(C(=O)c1cc2nc(-c3ccc4c(c3)OCO4)cc(C(F)(F)F)n2n1)c1ccc(OC(F)(F)F)cc1	105.0	108.0
Cn1c(=O)cc(OCC(=O)N2CCN(c3ccccc3)CC2)c2ccccc21	110.0	112.0
COc1ccc(CC2C(=O)Nc3ccc(Br)cc32)cc1OC (configuration not stated)	107.0	99.0
Cc1ccc(CN2CCCn3nc(C(=O)NCc4ccc(N(C)C)cc4)cc3C2=O)cc1	112.0	99.0

Five structures already listed, sorted by length of the SMILES, high to low:
structure	PV pol inh	PV pol inh intensity
CC(C)(C)c1ccc(C(=O)NC2(C(F)(F)F)C(=O)Nc3c2c(=O)[nH]c(=O)n3-c2ccccc2)cc1 (configuration not stated)	103.0	104.0
CN(C(=O)c1cc2nc(-c3ccc4c(c3)OCO4)cc(C(F)(F)F)n2n1)c1ccc(OC(F)(F)F)cc1	105.0	108.0
Cc1ccc(CN2CCCn3nc(C(=O)NCc4ccc(N(C)C)cc4)cc3C2=O)cc1	112.0	99.0
Cc1ccc(CNc2ccc3cc(S(=O)(=O)N4CCCCC4)ccc3n2)cc1	114.0	110.0
COc1ccc(CC2C(=O)Nc3ccc(Br)cc32)cc1OC (configuration not stated)	107.0	99.0

These rows are one share of the data (hit frequency here may not be typical).
